Mtb hypoxia rep: Mtb hypoxia fluorescent reporter inhibition | M. tuberculosis hypoxia-regulated fluorescent reporter, fluorescence | fluorescence inhibition, % (no concentration beside the values) | hit rate 0.1% among 300,000 | AID 1159583;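 active = 35 to 45% if threefold the growth effect, above 45% if 1.5-fold the growth effect; inactive = the rest, general growth blockers included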;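 also: wells of about 50 µL received 100 nL stock; 0% = vehicle wells and 100% = reference inhibitor wells; whole bacteria with a GFP reporter of the hypoxia response; strong numbers were not always called active; many hits fall short of the cut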
Sa ugtP lethal: growth inhibition of S. aureus ugtP deletion strain; S. aureus RN4220 ugtP deletion, OD600 growth, 16 h; some inactives read as strong as hits; hit rate 0.54% among 330,000; growth inhibition, % (no concentration beside the values);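 active = z-score under -3 and OD600 up to 0.15 on both plates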;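 also: plate controls were untreated wells for no effect and antibiotic for full effect; wells of about 80 µL received 100 nL stock; the first replicate is given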
RN4220 kill: S. aureus RN4220 growth inhibition | OD600, 16 h | hit rate 0.33% among 330,000 | AID 1259311 | inhibition, % (no concentration beside the values);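 active = z-score of -3 or lower and OD600 up to 0.18 on both plates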;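 also: plate controls were untreated cells for no effect and reference antibiotic for full effect; stock transfer was 100 nL into about 80 µL; one replicate is shown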
PrP 5UTR inh: suppresses PrP 5' UTR mRNA reporter expression | cell-based PrP 5' UTR mRNA reporter, plate reader | inhibition, % (no concentration beside the values) | hit rate 0.35% among 340,000;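 active = every replicate at 50% or more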;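 also: 0 = median of the neutral control wells; tested in H4 reporter cells; numbers are from one replicate; inactives centre near -14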
Bead autofluor: counter-screen for toxin protease inhibitors: compound fluorescence; compound autofluorescence counterscreen, microsphere flow cytometry; stronger effect = higher value; fluorescence intensity (concentration not given with the values); hit rate 3.1% among 360,000;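 active = at least 3 SD above the mean of all compounds, about 16000 in these data; inconclusive = too few beads counted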;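 also: 100 nL of 1 mM stock went into each well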
BJeLR lethal: kills HRASV12-expressing BJeLR cells; hit rate 0.17% among 300,000; AID 1554; inhibition, % (concentration not given with the values); BJeLR (HRASV12) viability, CellTiter-Glo ATP luminescence, 48 h; reference of the scale not given here;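 active = replicate mean above 50%; inconclusive = above 50% but judged a plate artefact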;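 also: 50 nL library stock added to about 25 µL; numbers are from one replicate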
Mtb hypoxia rep growth: second read-out of Mtb hypoxia rep, no call of its own (marks repeat the call); growth inhibition, %; measured here: M. tuberculosis growth (absorbance);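 0% = vehicle and 100% = reference antibiotic; read after six days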
Active calls of the source: *; ? = inconclusive; . = no result given; & = joins results of further samples.

Fields: Mtb hypoxia rep	Mtb hypoxia rep growth	Sa ugtP lethal	RN4220 kill	PrP 5UTR inh	Bead autofluor	BJeLR lethal
[1] CCOC(=O)N1CCN(c2c(N3CC=C(c4ccccc4)CC3)c(=O)c2=O)CC1
  2	1	12	4.7	-2	6025	-2
[2] Cc1occc1C(=O)N/N=C/c1ccccc1[N+](=O)[O-]
  .	.	.	.	-54	3627	-17
[3] CCOc1cc(C(=O)NC(C)C2CC3CCC2C3)cc(OCC)c1OCC (configuration not stated)
  6	-1	9	2.3	.	5953	9
[4] N#Cc1ccc(OCC(=O)N/N=C2/CC(c3ccccc3)Oc3ccccc32)cc1 (configuration not stated)
  .	.	.	.	-41	2118	4
[5] CC(C)N(Cc1nc(-c2ccccc2)no1)C(=O)c1ccc(Br)o1
  .	.	14	7.2	-6	4117	4
[6] Cc1nn2c(N3CCOCC3)cc(C(C)(C)C)nc2c1-c1ccccc1
  13	12	7	0.4	-24	3901	13
[7] Cc1cccc(-c2onc3ccc(C4(C)OCCO4)cc23)c1
  .	.	.	.	-13	2876	4
[8] O=C(NCc1ccncc1)C1CCCN(S(=O)(=O)Cc2ccccc2)C1 (configuration not stated)
  .	.	9	4.8	-20	4600	-7
[9] O=C(CC(=O)c1ccccc1)CC(O)(C=Cc1ccccc1)c1ccccc1 (configuration not stated)
  .	.	13	-4.8	-23	3518	.
[10] CC(C)(C)NC(=O)[C@@H]1C[C@@H]2CCCC[C@@H]2CN1C[C@@H](O)[C@H](Cc1ccccc1)NC(=O)[C@H](CC(N)=O)NC(=O)c1ccc2ccccc2n1
  .	.	.	.	0&-8	5092&5658	-16&-22
[11] Cc1c(C(=O)NNC(=O)c2csc(N3CCOCC3)n2)cccc1[N+](=O)[O-]
  8	5	4	-0.6	-19	8630	.
[12] CN(C)c1ccc(C(=O)/C=C/c2cccnc2)cc1
  8	5	3	0.9	-11	3094	6
[13] CCOC(=O)NC(NC(=S)Nc1ccc(OCC)cc1)C(Cl)(Cl)Cl (configuration not stated)
  -1	1	-3	3.4	10	2327	4
[14] c1ccc(-c2noc(C34CC5CC(CC(C5)C3)C4)n2)nc1
  .	.	-1	1.6	-104	3097	-1
[15] COc1ccc(/C=C/C(=O)NCC(=O)NN=C(C)c2ccc(Cl)cc2)cc1
  1	4	-1	-0.4	.	.	.
[16] CC(Sc1ccccc1)C(=O)NN=Cc1cccnc1 (configuration not stated)
  -10	3	3	3.1	.	.	.
[17] Cc1cccc2c(=O)oc(-c3ccccc3Cl)nc12
  8	1	4	5.4	-22	.	15
[18] O=C1CC2(CCCC2)C(=O)N1c1ccc(S(=O)(=O)NCC2CC2)cc1Cl
  -4	1	-2	0.9	-22	5881	12
[19] CCOC(=O)C1C2COc3ccc(Cl)cc3C2N2C(=O)CN(CC3CCCO3)C(=O)[C@@]12C (some centres not stated)
  1	2	0	2.9	.	.	.
[20] Cc1nnc(SCC(=O)Nc2c(Cl)cccc2Cl)[nH]c1=O
  6	0	3	2.2	-5	6018	6
[21] Cc1ccc(C(=O)Oc2ccccc2N2C(=O)C3CCC(C)CC3C2=O)cc1 (configuration not stated)
  10	8	21	3.6	-4	8463	-1
[22] CCC(C)OC1OC(CO)C(O)C(O)C1NC(C)=O (configuration not stated)
  4	8	8	2.6	2	2020	1
[23] Cc1ccc(C)c(N(CC(N)=O)S(C)(=O)=O)c1
  .	.	9	1.4	-28	4875	6
[24] O=C(COC(=O)c1ccc(NS(=O)(=O)c2cccs2)cc1O)NCc1ccccc1
  -5	10	7	10	2	4834	-2
[25] COc1ccc(S(=O)(=O)N2CCN(Cc3cccc(OC)c3OC)CC2)cc1
  12	-3	17	1.6	-26	3574	1
[26] Cc1cc2ncn(C3CC(=O)N(C)C3=O)c2cc1C (configuration not stated)
  6	8	2	0.1	-19	15709	-8
[27] CC1(C)CC(=O)c2cnc(NCC3CCCO3)nc2C1 (configuration not stated)
  .	.	1	4.3	-15	2294	2
[28] CC(=NNC(=O)c1ccc(Br)s1)c1ccncc1
  13	-5	5	9.6	.	.	.
[29] C[C@]12CCC(=O)C=C1CCC1C3CCC(C(=O)CO)[C@@]3(C=O)CC(O)C12 (some centres not stated)
  4	9	0	4.2	.	.	.
[30] CC1Cc2ccccc2N1S(=O)(=O)c1cccc(C(=O)NCc2ccncc2)c1 (configuration not stated)
  -11	0	-5	2.6	2	3581	.

Complete entries, quoted from the list. Order of screens: Mtb hypoxia rep | Mtb hypoxia rep growth | Sa ugtP lethal | RN4220 kill | PrP 5UTR inh | Bead autofluor | BJeLR lethal
CC(Sc1ccccc1)C(=O)NN=Cc1cccnc1 (configuration not stated) as listed: -10 | 3 | 3 | 3.1 | . | . | .
CC(C)(C)NC(=O)[C@@H]1C[C@@H]2CCCC[C@@H]2CN1C[C@@H](O)[C@H](Cc1ccccc1)NC(=O)[C@H](CC(N)=O)NC(=O)c1ccc2ccccc2n1 as listed: . | . | . | . | 0&-8 | 5092&5658 | -16&-22
CC(=NNC(=O)c1ccc(Br)s1)c1ccncc1 as listed: 13 | -5 | 5 | 9.6 | . | . | .
CC1(C)CC(=O)c2cnc(NCC3CCCO3)nc2C1 (configuration not stated) as listed: . | . | 1 | 4.3 | -15 | 2294 | 2

(next part)
Fields: Mtb hypoxia rep	Mtb hypoxia rep growth	Sa ugtP lethal	RN4220 kill	PrP 5UTR inh	Bead autofluor	BJeLR lethal
[31] COc1ccc(-c2sc3ccccc3c2C#Cc2cncn2C)cc1
  .	.	97*	79	-9	4145	.
[32] COc1ccc(S(=O)(=O)N(Cc2ccc(OC)c(OC)c2)Cc2ccco2)cc1
  .	.	6	6.6	-30	4255	-4
[33] N#C/C(=C/c1ccncc1)c1nc2ccccc2s1
  -6	5	5	9.7	-4	2428	-15
[34] O=C(NC1CCCCC1)C(c1cccnc1)N(C(=O)c1csnn1)c1ccc(F)cc1 (configuration not stated)
  9	1	8	2.8	-4	4260	-19
[35] O=c1[nH]c2ccc(S(=O)(=O)Nc3ccccc3O)cc2[nH]1
  3	4	7	2.6	-10	3478	6
[36] Cc1c2n(c3ccccc13)CC/C2=N\O
  .	.	.	.	-22	?	-2
[37] COc1ccc(Cl)cc1NS(=O)(=O)c1cc(Cl)ccc1OC
  -3	0	0	4.7	-8	?	1
[38] CCCC(=O)c1c(NC(C)C)cc(C)oc1=O
  3	-8	4	5.2	12	7669	-12
[39] O=C(CSCc1ccc(F)cc1)NCc1cccs1
  1	2	2	3.4	-23	3318	-3
[40] CCOC(=O)c1sc(Nc2nc3c(OC)cccc3s2)cc1C
  10	8	-15	-6.9	-17	1783	-11
[41] COc1cc(CN(C(=O)c2ccco2)C2CCS(=O)(=O)C2)cc(OC)c1OC (configuration not stated)
  11	8	11	3.4	-36	5180	3
[42] COc1ccc(CN2CCC3C=CCc4cccc(c43)C2)cc1 (configuration not stated)
  4	16	-3	-3.0	.	.	.
[43] COc1ccc(NC(=O)c2ccc3ccccc3c2)cc1
  3	-4	2	4.1	-68	3881	-11
[44] Cc1cc(NC(=O)CSc2nnnn2-c2ccccc2)no1
  3	4	3	8.4	-14	2220	0
[45] Cc1ccc(C2=NC(C)(C)NC2=O)cc1
  8	2	0	4.4	-13	9406	0
[46] CC=CC(=O)Nc1cccc(C2=NOC3(C2)CC(C(N)=O)N(C(=O)c2ccccc2C(=O)c2ccccc2)C3)c1 (configuration not stated)
  -12	-6	-1	3.2	.	.	.
[47] COc1ccc(C(=O)/C=C2/c3ccccc3CC(C)(C)N2C)cc1OC
  20	12	15	7.3	-9	2528	11
[48] Cc1cc(C)nc(NC(=O)NS(=O)(=O)Nc2ccc(Br)cn2)n1
  .	.	.	.	-15	3781	10
[49] CNc1nnc(-c2ccco2)s1
  -1	7	1	-0.1	-18	4183	-6
[50] O=C(NCCc1ccccc1)C1CCN(S(=O)(=O)c2ccc(-n3cnnn3)cc2)CC1
  24	-14	-1	-17	-3	3324	7
[51] O=C(OCCc1ccccc1)c1cc(O)c(O)c(O)c1
  10	8	-8	5.7	-25	4043	5
[52] CC(=O)c1cccc(NC(=O)C(C)OC(=O)c2cc(=O)[nH]c3ccccc23)c1 (configuration not stated)
  -3	0	2	5.5	-18	6272	3
[53] Fc1c(F)c(F)c(NC2=NCCCCC2)c(F)c1F
  -2	7	2	-2.1	-31	3714	0
[54] CCOC(=O)N1CCN(C(=S)NC(=O)c2nn(C)cc2Br)CC1
  7	1	3	1.5	-8	2653	-3
[55] COc1ccc(C/C(C)=N/NC(=O)c2ccc(Cl)cc2)cc1
  .	.	.	.	1	3925	10
[56] Cc1ccc(-c2nnc(N3CCN(CCO)CC3)c3ccccc23)cc1
  3	2	12	-0.9	-14	3644	20
[57] N=C1c2c(cc(=O)n3c2[nH]c2ccccc23)CN1CCN1CCOCC1
  5	-1	11	2.1	-27	4077	2
[58] Cc1noc(NS(=O)(=O)c2ccc(NC(=O)/C=C/c3ccc(Br)cc3)cc2)c1C
  5	4	16	3.6	-6	4415	.
[59] COCc1cc(C)nc(OCC(=O)NN=Cc2ccc(-c3cc([N+](=O)[O-])ccc3C)o2)c1C#N
  11	5	10	9.7	.	.	.
[60] Cc1cc(C(=O)c2ccc(C(C)(C)C)cc2)c(NC(=O)CCl)s1
  21	16	-1	-9.6	6	2161	-6
[61] S=C1NCCOCCOCCOCCNC(=S)N2CCOCCOCCN1CCOCCOCC2
  2	6	8	3.5	-9	2574	-2
[62] CCOc1ccc(S(=O)(=O)NN=C(C)Cc2ccc(OC)cc2)cc1
  6	13	2	3.7	.	.	.
[63] CCCN1CCC(NC(=O)Cc2cccc(C)c2)CC1
  7	-5	11	2.1	-20	.	8
[64] N/C(=N\N=Cc1cccs1)SC1CC(=O)N(c2ccc(Br)cc2)C1=O (configuration not stated)
  5	-6	6	-7.9	.	.	.
[65] O=C(NC1CCCCC1)C1CCCN(c2nnnn2-c2ccccc2)C1 (configuration not stated)
  4	1	11	5.6	-16	17148*	-7
[66] CCn1c(COc2ccc(Cl)c(C)c2)nnc1SCC(=O)N1CCCC1
  -2	10	-14	-3.2	-19	20792*	-3
[67] COc1cc(/C=N/NC(=O)c2ccncc2)ccc1OCC(=O)Nc1cccc([N+](=O)[O-])c1
  .	.	.	.	-28	2840	-4
[68] Cc1oc(-c2ccccc2)nc1C(=O)N1CCN(c2ccc(F)cc2)CC1
  10	7	5	15	-19	4631	-1
[69] CCN(Cc1ccccc1)c1ccc(C=NNS(=O)(=O)c2cccc([N+](=O)[O-])c2)cc1
  5	4	-9	-7.1	.	.	.
[70] COc1ccc(-c2cc(C(F)(F)F)nc(SCC(N)=O)n2)cc1
  10	7	0	7.8	-23	11457	-2
[71] c1ccc2sc(SCSc3nc4ccccc4s3)nc2c1
  9	11	17	5.5	-9	3347	-2
[72] O=c1cc(CSc2n[nH]c(-c3ccncc3)n2)nc2sccn12
  -8	3	-1	2.6	-23	5088	0
[73] Cc1cc(C)cc(NC(=S)N(CCN(C)C)Cc2cccs2)c1
  2	5	10	2.2	-18	3930	0
[74] CCSc1ncc(C#N)c(=O)[nH]1
  .	.	10	0.4	10	5885	-5
[75] Cn1nnnc1NCc1ccccc1F
  2	-3	2	1.7	-14	3936	-2
[76] CC(OC(=O)c1nn(C)c(=O)c2ccccc12)C(=O)NCc1ccc2c(c1)OCO2 (configuration not stated)
  0	1	-3	-0.2	-5	8967	4
[77] Cc1ccc(S(=O)(=O)N2CCN(C(=O)COC(=O)CCOc3cc(C)ccc3C)CC2)cc1
  -5	-3	-11	-8.0	9	?	3
[78] N#CC1(c2ccccc2)CCC(=O)N1c1ccccc1 (configuration not stated)
  -3	1	0	2.0	-12	5349	-2
[79] CC1CCCC(C)N1C(=O)Cn1nnc(-c2ccccc2)n1 (configuration not stated)
  -5	-2	8	2.8	-9	2793	3
[80] COc1ccc(/C=N/OCC(=O)N=Nc2c(O)[nH]c3ccc(Br)cc23)cc1OC
  .	.	.	.	-6	2504	3
[81] Cc1[nH]c2ccccc2c1-c1ccc(Cl)nn1
  4	6	-3	6.1	-30	3372	7
[82] O=C(NCc1ccccc1Cl)c1ccc(CS(=O)Cc2ccc(Cl)cc2)o1 (configuration not stated)
  6	2	0	0.5	-21	5820	3
[83] CCN1CCN(c2ncc(C(=O)Nc3ccccc3C(=O)OC)c3ccccc23)CC1
  .	.	0	-0.2	-1	2332	7
[84] O=C(c1cccc(F)c1)N1CCCC(C(=O)N2CCCCCC2)C1 (configuration not stated)
  -4	13	0	3.9	-17	3369	2
[85] CCN1CCN(C(=O)Cn2nc(C)c3sc4ccccc4c3c2=O)CC1
  11	-2	9	4.0	-1	4240	4
[86] CCOC(=O)c1c(NC(C)=O)sc(C(=O)NC2CCCC2)c1C
  11	-5	0	5.7	-24	6213	5
